Screening data (PubChem BioAssay)
Bead autofluor: compound fluorescence in toxin protease inhibitor counterscreen; compound autofluorescence counterscreen, microsphere flow cytometry; hits give high values; fluorescence intensity (no concentration beside the values); 360,000 compounds, 3.1% hits; AID 624483;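 active = at least 3 SD above the mean of all compounds, about 16000 in these data; inconclusive = too few beads counted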;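 note: 100 nL of 1 mM stock went into each well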
Mtb hypoxia rep: reduces hypoxia-regulated biosensor signal in M. tuberculosis; M. tuberculosis hypoxia-regulated fluorescent reporter, fluorescence; fluorescence inhibition, % (concentration not given with the values); 300,000 compounds, 0.1% hits; AID 1159583;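 active = 35 to 45% if threefold the growth effect, above 45% if 1.5-fold the growth effect; inactive = the rest, general growth blockers included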;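 note: wells of about 50 µL received 100 nL stock; 0% = vehicle wells and 100% = reference inhibitor wells; whole bacteria with a GFP reporter of the hypoxia response; strong numbers were not always called active; many hits fall short of the cut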
ugtP null kill: compounds lethal to S. aureus RN4220 ugtP deletion mutant. OD600 growth, 16 h; some inactives read as strong as hits. growth inhibition, % (test concentration not listed). 330,000 compounds, 0.54% hits. AID 1259309;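 active = z-score under -3 and OD600 up to 0.15 on both plates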;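 note: plate controls were untreated wells for no effect and antibiotic for full effect; wells of about 80 µL received 100 nL stock; the first replicate is given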
BJeLR viability: kills HRASV12-expressing BJeLR cells; BJeLR (HRASV12) viability, CellTiter-Glo ATP luminescence, 48 h; reference of the scale not given here; inhibition, % (no concentration beside the values); 300,000 compounds, 0.17% hits; AID 1554;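 active = replicate mean above 50%; inconclusive = above 50% but judged a plate artefact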;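 note: 50 nL library stock added to about 25 µL; numbers are from one replicate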
PrP 5UTR inh: inhibition of PrP 5' UTR reporter expression | 340,000 compounds, 0.35% hits | AID 488862 | cell-based PrP 5' UTR mRNA reporter, plate reader | inhibition, % (concentration not given with the values);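 active = every replicate at 50% or more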;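 note: 0 = median of the neutral control wells; tested in H4 reporter cells; numbers are from one replicate; inactives centre near -14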
Sa RN4220 lethal: kills Staphylococcus aureus RN4220; S. aureus RN4220 growth, OD600, 16 h; inhibition, % (test concentration not listed); 330,000 compounds, 0.33% hits;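 active = z-score of -3 or lower and OD600 up to 0.18 on both plates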;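 note: plate controls were untreated cells for no effect and reference antibiotic for full effect; stock transfer was 100 nL into about 80 µL; one replicate is shown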
Mtb hypoxia rep growth: recorded beside Mtb hypoxia rep, whose call it bears; growth inhibition, %; measured here: M. tuberculosis growth (absorbance);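 0% = vehicle and 100% = reference antibiotic; read after six days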
* marks the source's active call; other numbers are inactive results; ? = inconclusive; / = not tested or not shown; & = joins results of further samples.

SMILES	Bead autofluor	Mtb hypoxia rep	Mtb hypoxia rep growth	ugtP null kill	BJeLR viability	PrP 5UTR inh	Sa RN4220 lethal
CCn1cnc2c([N+](=O)[O-])c(NS(=O)(=O)c3ccc(C)cc3)ccc21	4435	6	11	6	35	-12	10
CN1CCN(CCCN2c3ccccc3Sc3ccc(Cl)cc32)CC1	6890	25	22	-2	-10	12&-4	-11
O=C(NCc1nc2ccccc2[nH]1)C1=CC(C2CCCCC2)CC(OCCCCO)O1 (centres undefined)	/	3&2	-5&11	6&11	/	/	2.5&3.3
Cc1ccc(C(=O)Cn2nnc(-c3cccs3)n2)cc1	5270	-4	-2	3	-5	-61	7.0
CCc1nnc(NC(=O)CSc2nc3[nH]ncc3c(=O)[nH]2)s1	2665	-2	-2	2	0	-14	4.1
Oc1ccccc1N=Nc1nc(-c2ccccc2)c(-c2ccccc2)[nH]1	3051	/	/	/	67*	35	/
CCN(CC)S(=O)(=O)c1cc(NC(=O)C(C)N2CCc3ccccc32)ccc1C (centres undefined)	5393	13	8	-1	-13	-19	2.8
Cn1cc(Cl)c(C(=O)NC2CCCC2)n1	5836	-11	0	1	-8	-20	3.1
O=C(CCNC(=O)Cn1ccc2ccccc2c1=O)NCCN1CCc2ccccc2C1	3690	/	/	11	8	0	8.9
COc1cccc(C(=O)N(Cc2ccc3c(c2)OCO3)Cc2nc3ccccc3c(=O)[nH]2)c1	4384	/	/	0	1	-12	1.2
Cc1ccc(S(=O)(=O)Nc2cccc(C(=O)NCC(c3ccccc3)N(C)C)c2)cc1F (centres undefined)	?	12	10	2	13	-21	-0.1
CN(CC(=O)Nc1cccc(S(=O)(=O)N2CCCC2)c1)CC(=O)Nc1ccc(F)c(F)c1F	3110	-1	-6	-2	/	-9	4.8
CCC1=Nc2cc(C(=O)NCCCOC(C)C)ccc2Sc2ccccc21	3796	14	4	11	13	-23	5.2
Cc1nc(SCc2c(F)cccc2Cl)n[nH]1	19718*	2	12	1	6	4	0.5
O=C(NCC1CCCO1)Nc1cccc(Cl)c1 (centres undefined)	4728	4	12	-14	21	-10	-2.2
COc1ccc(C2=CC(=O)CC(c3ccc(Cl)cc3)C2)cc1 (centres undefined)	/	3	13	-3	/	/	-5.3
O=C(O)CC1c2ccccc2S(=O)(=O)N1C1CCCC1 (centres undefined)	/	13	8	-3	/	/	9.7
Cc1ccc(NCCC(=O)c2ccc(Cl)cc2)cc1	10041	8	3	1	-6	-37	2.4
COc1ccc(C(=O)NCC(=O)NN=Cc2ccc([N+](=O)[O-])o2)cc1OC	/	13	26	27	/	/	4.0
COc1cc(C(=O)NN=Cc2ccsc2C)cc(OC)c1OC	/	8	6	-1	/	/	2.5
CNCC1Oc2ccc(NC(=O)Nc3ccc4c(c3)OCO4)cc2C(=O)N(C(C)CO)CC1C (centres undefined)	/	18	12	7	/	/	1.0
Cc1ccc(SC[C@H](C)CN2CC[C@H](C(C)(C)C)CCC2=O)cc1	3658	/	/	/	-2	-10	/
Cc1nn(-c2ccccc2)c(N2CCCCC2)c1C=NNC(=O)c1ccncc1	/	6	1	4	/	/	2.8
COC(=O)c1ccc2c(=O)n(-c3ccccc3)c(SCN3C(=O)c4ccccc4C3=O)nc2c1	2453	12	3	0	-14	-14	3.8
COC(=O)Nc1sc2c(c1C(N)=O)CCC(C)C2 (centres undefined)	4584	-4	3	7	10	-10	7.0
CCCCCCCN1C=CC(=O)CC1	3613	10	10	-5	3	-13	6.3
O=c1cc(-c2cccc(F)c2)oc2ccccc12	3540	4	7	-4	/	-42	7.2
NC(=O)[C@@H]1CCCN1Cc1nc(Cc2ccccc2F)no1	4731	-7	-3	-4	13	3	2.9
O=C(CNS(=O)(=O)c1ccc(Br)cc1Cl)OCC(=O)N1CCCC1=O	3878	5	7	0	/	-2	1.8
C=CC#CC1(O)CC(C)[N+](C)(C)CC1C (centres undefined)	4481	3	3	-1	6	-14	0.8
Cc1ccc(OCC(O)CN2CCOCC2)c(C)c1 (centres undefined)	3824	5	1	4	1	-4	3.5
Cc1cc(NC(=O)CSc2ncnc3c2cnn3-c2cccc(Cl)c2)no1	3447	6	-2	5	-8	-15	4.1
O=C(c1ccc(-c2ccc([N+](=O)[O-])cc2Cl)o1)N1CCOCC1	4709	-7	7	4	1	-11	3.5
COc1ccc(NC(=O)Nc2ccccc2C)c(OC)c1	3241	8	9	2	5	-40	6.1
CCn1nc(C)c(NC(=O)CSc2nnc(-c3ccco3)n2C)c1C	6743	6	-3	6	5	-21	3.4
CCC1(CC)Cc2ccccc2-c2[nH]c(=S)[nH]c(=O)c21	4315	9	2	5	-2	-17	-3.3
Cc1cc(C)n2nc(C(=O)N/N=C/c3ccc(Cl)cc3)nc2n1	4554	/	/	/	7	-24	/
CNC(=O)CSc1nnc(CCc2ccccc2)n1-c1ccccc1	6321	-8	1	-3	-10	-25	1.1
COc1ccccc1N1CCN(CC(=O)Nc2ccc(C)c(F)c2)CC1	2183	/	/	-1	1	0	3.3
Cc1ccccc1NC(=S)c1nc2ccccc2[nH]1	1961	12	5	6	12	-48	-5.6
Cc1ccc2nc(NN=Cc3ccccc3F)nc(-c3ccccc3)c2c1	/	-3	-2	-12	/	/	1.0
CO/N=C(/C)CCS(=O)(=O)c1ccccc1	4642	/	/	/	1	-21	/
COC(=O)c1sc(S(=O)(=O)Nc2c(C)nn(C)c2C)c(C(=O)OC)c1C	6864	-8	5	5	/	-9	1.2
COc1ccc(NC(=O)CN(C)C(=O)c2cccc(Oc3ccccc3)c2)cc1	6457	11	6	10	/	-16	0.9
O=C(OCC(=O)N1CCCc2ccccc21)c1ccc(Br)o1	2487	6	3	19	6	-15	24
CCCc1nnc(SCC(=O)N2CCCCC2C)n1CC1CCCO1 (centres undefined)	4372	-6	1	-1	3	-14	-4.9
CSCC(C)N1CCC(CO)(CCCc2ccccc2)CC1 (centres undefined)	3654	6	8	-9	-3	4	1.8
CN1CC=C2C(C#N)=C(N)C(C#N)(C#N)C(c3ccsc3)C2C1 (centres undefined)	4965	/	/	5	1	-21	-3.7
O=C(COc1cc(Cl)ccc1Cl)Nc1ccc2c(c1)CCC2	2517	-1	-2	0	-8	-77	15
COc1ccc2c(c1)C(C)(CCN)C(=O)N2C (centres undefined)	3508	1	5	1	4	-48	4.1

(further entries)
SMILES	Bead autofluor	Mtb hypoxia rep	Mtb hypoxia rep growth	ugtP null kill	BJeLR viability	PrP 5UTR inh	Sa RN4220 lethal
O=C(NCc1ccc(F)cc1)C1CCCN(C(=O)NCc2ccccc2)C1 (centres undefined)	3683	9	-6	11	10	-23	-4.1
CC1SC(c2ccc(F)cc2)N(CCc2ccccc2)C1=O (centres undefined)	7702	4	10	11	-7	-6	5.7
CCOC(=O)C1(Cc2ccccc2)CCN(Cc2cccc3nccnc23)CC1	2151	-3	7	1	-2	-27	2.4
CN1CCC(N(C)C(=O)Cc2ccccc2[N+](=O)[O-])CC1	5131	19	14	5	2	-16	0.8
CC(=O)OC(Cn1ccnc1)c1ccccc1 (centres undefined)	4874	/	/	-1	14	1	6.1
CC(=O)N1CCC2(CC1)CC(=O)c1cc(OCC(=O)N3CCC4(CC3)OCCO4)ccc1O2	4142	4	3	-7	6	-27	1.5
COc1ccc(NC(=O)c2cc(S(=O)(=O)N(Cc3ccccc3)c3ccccc3)ccc2Cl)cn1	2963	0	-3	-24	-7	-2	1.1
CNC(=O)CCCc1nc(-c2ccccc2Cl)no1	17469*	9	3	3	1	-16	-1.2
CC(/C=C/c1cccc([N+](=O)[O-])c1)=N/NC(=O)c1cccnc1	2496	/	/	/	1	-3	/
CC(OC(=O)c1oc2ccccc2c1COc1ccccc1)C(N)=O (centres undefined)	5164	7	-5	0	6	-8	4.8
Nc1ncnc2oc(-c3ccco3)c(-c3ccco3)c12	4232	11	6	-1	-8	25	-3.1
COc1ccc(NC(=O)CSc2n[nH]c(N)n2)cc1OC	4476	-6	15	2	2	-18	0.2
CCOc1ccc(CCNC(=O)CCc2nnc3ccc(N4CCOCC4)nn23)cc1	5996	/	/	-3	-9	-19	3.8
Cc1ccc(S(=O)(=O)N(C)C)cc1NC(=S)NCCc1ccccn1	4525	2	-6	3	2	1	-2.0
CCOc1ccc(/C=C2/C(=O)N(c3ccc(OC)cc3)C(=S)N2CC(=O)OC)cc1OCC	4018	22	10	3	-2	-8	-5.0
COc1cc(OC)cc(-c2n[nH]c(=S)n2-c2ccc3c(c2)OCCO3)c1	1937	-3	8	6	-6	-11	2.0
Cc1cc(Br)ccc1NC(=O)C1CCN(S(=O)(=O)c2cnc[nH]2)CC1	5290	13	8	4	5	-2	3.3
COCCN(C(=O)C(F)(F)F)C(C(=O)NC1CCCCC1)c1ccco1 (centres undefined)	3733	9	9	2	9	-20	4.0
CCOC(=O)Nc1ccc2c(c1)N(C(=O)CCCl)c1ccccc1[S@]2=O	4236	4	15	0	3	-12	4.0
Cc1ccc(COc2coc(CO)cc2=O)cc1	5441	1	-3	7	-2	-20	6.7
Cc1ccc2c(c1)NC(=O)C(CC(=O)Nc1ccc(CN3CCC(C)CC3)cc1)O2 (centres undefined)	5345	/	/	8	4	-7	0.7
COc1ccc(C(=O)NC2(C(F)(F)F)N=C3SCCN3C2=O)cc1 (centres undefined)	9638	-1	-5	1	/	-21	2.1
Cc1ccc(S(=O)(=O)N(C)c2ccc(OC(=O)CN3C(=O)NC4(CCCC4)C3=O)cc2)cc1C	/	3	7	-5	2	-4	2.5
CC1CCN(C(=O)CSc2nc3[nH]ncc3c(=O)[nH]2)CC1	2468	12	4	7	-8	-10	6.7
Cc1cc(N)n(C2CCN(C)CC2)n1	3390	/	/	2	0	-17	1.1
O=C(Nc1cc2c(ccc3ccccc32)oc1=O)C1CCCCC1	10563	11	15	9	2	-17	4.7
CCn1c(C(=O)NC2CCC(C)CC2)cc2sccc21 (centres undefined)	5746	-9	7	-1	4	-39	2.1
Cn1c(SCC(=O)N2CCCc3ccccc32)nnc1-c1ccccc1	12293	5	2	12	7	-20	8.3

Of the compounds above, these contain an aryl methoxy group:
SMILES	Bead autofluor	Mtb hypoxia rep	Mtb hypoxia rep growth	ugtP null kill	BJeLR viability	PrP 5UTR inh	Sa RN4220 lethal
COc1cccc(C(=O)N(Cc2ccc3c(c2)OCO3)Cc2nc3ccccc3c(=O)[nH]2)c1	4384	/	/	0	1	-12	1.2
COc1ccc(C2=CC(=O)CC(c3ccc(Cl)cc3)C2)cc1 (centres undefined)	/	3	13	-3	/	/	-5.3
COc1ccc(C(=O)NCC(=O)NN=Cc2ccc([N+](=O)[O-])o2)cc1OC	/	13	26	27	/	/	4.0
COc1cc(C(=O)NN=Cc2ccsc2C)cc(OC)c1OC	/	8	6	-1	/	/	2.5
COc1ccc(NC(=O)Nc2ccccc2C)c(OC)c1	3241	8	9	2	5	-40	6.1
COc1ccccc1N1CCN(CC(=O)Nc2ccc(C)c(F)c2)CC1	2183	/	/	-1	1	0	3.3
COc1ccc(NC(=O)CN(C)C(=O)c2cccc(Oc3ccccc3)c2)cc1	6457	11	6	10	/	-16	0.9
COc1ccc2c(c1)C(C)(CCN)C(=O)N2C (centres undefined)	3508	1	5	1	4	-48	4.1
COc1ccc(NC(=O)c2cc(S(=O)(=O)N(Cc3ccccc3)c3ccccc3)ccc2Cl)cn1	2963	0	-3	-24	-7	-2	1.1
COc1ccc(NC(=O)CSc2n[nH]c(N)n2)cc1OC	4476	-6	15	2	2	-18	0.2
CCOc1ccc(/C=C2/C(=O)N(c3ccc(OC)cc3)C(=S)N2CC(=O)OC)cc1OCC	4018	22	10	3	-2	-8	-5.0
COc1cc(OC)cc(-c2n[nH]c(=S)n2-c2ccc3c(c2)OCCO3)c1	1937	-3	8	6	-6	-11	2.0
COc1ccc(C(=O)NC2(C(F)(F)F)N=C3SCCN3C2=O)cc1 (centres undefined)	9638	-1	-5	1	/	-21	2.1
